Vaccinia mCherry: inhibitors of vaccinia virus infection (mCherry reporter signal); Vaccinia virus mCherry reporter infection, fluorescence; about a quarter of the inactives have no number; Potency, µM (doses to about 36.5 µM), inactives show top-dose activity change, negative = inhibition, actives largely listed as inhibitors; 310,000 tested, 0.63% active; active = well fitted inhibition curve with a large enough effect; inconclusive = small, poorly fitted or top-dose-only effect; inactive = no such curve, though single readings can be large or run the other way; tested in A549 cells; further: nearly all actives have a fitted effect of over 35% in size; inactives centre near -10
Vaccinia Venus: vaccinia inhibition (Venus reporter); Vaccinia virus Venus reporter expression, fluorescence; Potency, µM (highest dose often 36.5 µM), without a hit: at the top dose activity change, negative = inhibition, most hits filed as inhibitors; 330,000 tested, 0.46% active; AID 720580; active means well fitted inhibition curve with a large enough effect; inconclusive means small, poorly fitted or top-dose-only effect; inactive means no such curve, though single readings can be large or run the other way; tested in A549 cells; further: nearly all actives have a fitted effect of over 30% in size; inactives centre near -10
Starred values were filed as active, the others as inactive; i = inactive; ? = inconclusive; . = no result given; & = joins results of further samples; [ ] = remark or other dose. On the % scale 0 is the no-effect control and ±100 the full control effect; potency means the concentration at half of the fitted maximal effect.

Values run as follows: Vaccinia mCherry	Vaccinia Venus
COc1ccc(-c2nnn3c2nc(N2CCCC(C)C2)c2ccccc23)cc1 (stereo unspecified)
→ -0.1%	-2.8%
C/C(=N/NC(=O)C1CCCCC1)c1ccc([N+](=O)[O-])cc1
→ i	-21.0%
O=C(NCCc1csc(-c2ccc(F)cc2)n1)C(=O)Nc1ccc(Cl)cc1
→ -4.5%	13.2%
O=C(CSc1nc(O)cc(=O)n1-c1ccccc1)Nc1ccc(Br)cn1
→ -8.2%	-16.1%
CCSc1nc2sc3c(c2c(=O)n1-c1ccccc1C)CCN(C)C3
→ -11.3%	-11.5%
CCCCNC(=O)Nc1ccc2c(c1)N(C)C(=O)c1ccccc1S2
→ -15.0%&-3.2%	-4.9%&-14.4%
CCCCCn1c(=O)[nH]c2cc(C(=O)NCCCN3CCCCC3C)ccc2c1=O (stereo unspecified)
→ -2.3%	-5.0%
O=C(Cn1c(=O)oc2cc(S(=O)(=O)NCc3ccccc3)ccc21)N1CCCC1
→ -0.1%	-7.8%
CCS(=O)(=O)c1ncc(Cl)c(C(=O)Nc2ccccc2)n1
→ ?	?
CC(=O)NCCc1c(C)n(Cc2ccccc2)c2ccccc12
→ -12.8%	-6.4%
COc1cc(/C=C2\SC(=S)N(NC(=O)c3ccccc3O)C2=O)ccc1O
→ i	i
CCCOC(=O)c1c(NC(=O)c2cnn3c2NC(c2ccccc2)CC3C(F)(F)F)sc2c1CCCC2 (stereo unspecified)
→ -12.7%	-1.2%
CCc1ccc(OC2(C)CCN(CCOc3ccc(C)cc3)C2)cc1 (stereo unspecified)
→ i	-10.7%
CCOCCCNC(=O)Cn1nc(CC)n2c(cc3c(OC)cccc32)c1=O
→ -13.7%	-11.1%
COc1cc(C(=O)C(=O)N2CCN(c3ccccc3)CC2)cc2ccccc12
→ -12.1%	-9.7%
C#CCNC(=O)C1=C[C@H](c2csc3ccccc23)C[C@H](OCc2ccc(CO)cc2)O1
→ -15.3%	-20.1%
CC(C)NC(=O)CN(c1cccc([N+](=O)[O-])c1)S(=O)(=O)c1ccccc1
→ -8.2%	2.2%
CC(C)NC(=O)C1CCN(C(=O)N2CC(C)Oc3ccccc32)CC1 (stereo unspecified)
→ -0.6%	-3.3%
COc1ccc(Cl)cc1-c1nc(SCC(=O)NC(C)(C)C)n[nH]1
→ -26.5%	-15.6%
Cc1ccc(-n2nc3c(=O)n(CC(=O)NC4CCCCCC4)nc(C)c3c2C)cc1
→ -6.3%	-14.9%
CC(=O)Nc1sc(C)c(C)c1C(=O)OCC(=O)NC(C)c1ccccc1 (stereo unspecified)
→ -27.7%	-17.3%
CCc1ccc2nc(N(CCN(C)C)C(=O)c3ccc4ncsc4c3)sc2c1
→ -3.2%	-18.9%
CCc1cc(-c2[nH]ncc2-c2ccc3c(c2)OCO3)c(O)cc1O
→ ?	?
CCOC(=O)CCCCC(=O)c1[nH]c(=O)[nH]c1CSc1nc2ccccc2[nH]1
→ -2.7%	-21.9%
O=C(/C=C/c1ccc([N+](=O)[O-])cc1)OCC(=O)N1CCOCC1
→ -6.6%	-19.2%
Cc1cc(S(=O)(=O)N(Cc2ccc(C(C)(C)C)cc2)Cc2cccs2)ccc1-n1cnnn1
→ -26.2%	-27.1%
CCCC(C(=O)Nc1ccc(S(=O)(=O)Nc2nccs2)cc1)c1ccccc1 (stereo unspecified)
→ -20.8%	-5.8%
Cc1oc2nc(SCCCC(=O)NCCO)nc(N)c2c1C
→ i	-18.2%
O=C(Cn1nnc(-c2ccccc2)n1)Nc1cccc(S(=O)(=O)N2CCOCC2)c1
→ -7.8%	-12.0%
Cn1nnnc1SCc1csc(Nc2ccccc2)n1
→ .	-8.8%

The list goes on; the last 2 above are carried over.
Values run as follows: Vaccinia mCherry	Vaccinia Venus
O=C(Cn1nnc(-c2ccccc2)n1)Nc1cccc(S(=O)(=O)N2CCOCC2)c1
→ -7.8%	-12.0%
Cn1nnnc1SCc1csc(Nc2ccccc2)n1
→ .	-8.8%
Cc1ccccc1CCNC(=O)c1ccc(NC(=O)N2CC(C)Sc3ccccc32)cc1 (stereo unspecified)
→ -9.6%	-17.2%
Cc1ccc(Cl)cc1N1CCN(c2ncnc3c2nc2n3CCCCC2)CC1
→ -2.2%	-1.7%
CCOc1ccc(Nc2oc(-c3ccc(COc4ccccc4C)o3)nc2C#N)cc1
→ -26.7%	-17.6%
Cc1csc(=O)n1CC(=O)Nc1ccc(C(C)C)cc1
→ -6.9%	-13.1%
COc1cccc(NC(=O)Cn2c(=O)n(CCC(=O)NCCc3ccc(Cl)cc3)c(=O)c3ccccc32)c1
→ 9.7%	5.8%
CC(=O)Nc1ccc(S(=O)(=O)NCc2ccncc2)cc1
→ -2.8%	-11.8%
Cc1ccc(NC(=O)N2CCC(c3ccccc3)C2)cc1C (stereo unspecified)
→ -12.2%&5.8%	0.4%&-4.1%
Cc1ccc(-n2ncc(C(=O)NCCc3c[nH]c4ccccc34)c2C2CCN(C(=O)OC(C)(C)C)CC2)cc1C
→ ?	-20.6%
Cc1ccc(S(=O)(=O)N2[C@@H](c3ccc(Br)cc3)C(C(=O)O)=CC[C@H]2c2ccc3c(c2)OCO3)cc1
→ i	-8.2%
COc1cccc(NC(=O)Cn2cc(C(=O)c3ccccc3)c3ccccc32)c1
→ -11.3%	-13.4%
CCC1CCCCN1CCCNC(=O)c1ccc2c(c1)N(Cc1ccc(Cl)cc1)C(=O)c1ccccc1S2(=O)=O (stereo unspecified)
→ -23.6%	-23.6%
Cc1c(C#N)c2ccccc2n1CC(=O)O
→ -9.9%	-2.3%
Cc1ccc2c(COC(=O)CC3Sc4ccccc4NC3=O)cc(=O)oc2c1C (stereo unspecified)
→ -13.5%	-9.2%
COc1ccc(CCNC(=O)CCCn2nc(C)n3ccnc3c2=O)cc1OC
→ i	-8.4%
CCN1/C(=C/c2ccc3ccccc3[n+]2CCCS(=O)(=O)[O-])C=Cc2cc(C)ccc21
→ 62.4%[activator]	128.1%[activator]
COc1ccc(CSc2ccc(-c3nc4ccccn4c3NCc3ccccc3)cc2OC)cc1
→ -26.0%	-19.1%
Cn1c(CNc2nc3ccccc3n2CCN2CCCCC2)nc2ccccc21
→ i	?
COc1ccc(-c2c(C(=O)O)c(C(=O)O)c3n2CCC3)cc1
→ i	-19.1%
O=C(CN1CCCC1)Nc1nnc(-c2cccs2)s1
→ -4.6%	-15.0%
COc1cc(OC)c(C(=O)/C=C/c2ccc(OCc3ccccc3)c(OC)c2)c(OC)c1
→ ?	?
CCOC(=O)C(Sc1n[nH]c(N)n1)c1ccccc1 (stereo unspecified)
→ .	-5.2%
COc1cc2c(cc1OC)C(C)=NCC2
→ -1.1%	11.0%
O=C1CC2c3ccccc3C1C1C(=O)N(CCc3ccccc3)C(=O)C21 (stereo unspecified)
→ -5.2%	-20.3%
CC(=O)NC1C(=O)Nc2c1cccc2C(F)(F)F (stereo unspecified)
→ .	2.9%
O=C(CN1C(=O)NC2(CCCc3ccccc32)C1=O)c1ccccc1F (stereo unspecified)
→ -16.2%	-3.1%
CC(=O)N(/N=C/c1ccc(C)cc1)c1nc(CCl)cs1
→ ?	8.3%
COc1ccc(S(=O)(=O)N2CCN(C(=O)c3cc(C)oc3C)CC2)cc1
→ -2.4%	2.5%
CCN1C(=O)[C@H]2[C@@H](c3ccc(-c4ccc(OC)cc4)cc3)N[C@@](CC(C)C)(C(=O)OC)[C@H]2C1=O
→ i	-10.6%
CCCn1c(N)[n+](CC(=O)c2ccco2)c2ccccc21
→ -21.1%	-16.7%
CCOC(=O)c1cc(OC(=O)c2ccc(OC)cc2)n(-c2ccccc2)n1
→ -0.1%	-3.6%
Cc1ccc(CNC(=O)CCC(=O)N2Cc3ccccc3Oc3ncccc32)cc1
→ -10.9%	-12.9%
CC(=O)N1N=C(N)SC1c1ccc(Cl)c(Cl)c1 (stereo unspecified)
→ ?	-27.6%
COc1ccc(/C=C(/C#N)C(=O)Nc2ccccc2C)cc1C(=O)O
→ -9.6%	-1.5%
O=C1NC[C@H](CCCCN2C[C@H](Cc3ccccc3)N(CCC3CCCCC3)C(=O)C2=O)N(CCc2ccccc2)C1=O
→ -9.2%	-3.0%
CCOc1ccc(S(=O)(=O)N=C(c2ccccc2)N2CCOCC2)cc1
→ -4.1%	-19.7%
N/N=C(/Cc1nc2ccccc2[nH]1)c1ccc([N+](=O)[O-])cc1
→ -0.5%	-6.9%
CCNC(=O)NC(=O)C(C)Sc1nnc(COc2ccccc2Cl)o1 (stereo unspecified)
→ .	-17.9%
Cc1ccc(CCNC(=O)c2cc3cc(S(=O)(=O)N4CCCCC4)ccc3n2C)cc1
→ ?	?
Cc1cccc(CCN(CC(=O)NC2CCCCC2)C(=O)c2csnn2)c1
→ -11.1%	1.4%
Cc1nn2c(nc(N3CCOCC3)c3ccccc32)c1C=C(C#N)C#N
→ -16.5%	-12.0%
Cc1cccc(C(=O)Nc2cccc(OCc3cc(=O)n4cccc(C)c4n3)c2)c1
→ -18.6%	-22.8%
CCn1c2ccccc2c2cc(NC(=O)c3ccccc3[N+](=O)[O-])ccc21
→ -6.0%	-21.6%
COc1ccc(Cl)cc1NC(=O)c1sc2nc3c(cc2c1N)N1CCC3CC1
→ -3.2%	1.3%
COc1ccc(CCCN2CCC(CN3CCNC(=O)C3=O)CC2)cc1OC
→ i	-10.7%
O=C(C1CCN(c2ncnc3c2nc2n3CCCCC2)CC1)N1CCN(c2ccc(F)cc2)CC1
→ -10.3%	-28.5%
COc1cc(NC(=O)[C@@H]2CCCN(S(=O)(=O)c3cccc4cccnc34)C2)cc(OC)c1OC
→ -4.3%	-19.6%
Cn1nnc(NC(=O)CSc2ccc(Cl)cc2)n1
→ i	-3.1%
CCN(CC)c1ncnc2c1ncn2[C@H]1CN(Cc2ccncc2)C[C@@H](CO)O1
→ 1.4%	-8.0%
COc1ccc(-c2noc(-c3ccc(N4CCN(C)CC4)c([N+](=O)[O-])c3)n2)cc1OC
→ -16.7%	-27.9%
NS(=O)(=O)c1ccc(CCNC(=O)CSc2ccc(Cl)cc2)cc1
→ -7.4%	-4.9%
CC(C)(C)OC(=O)N1CCN(C(=O)c2ncn(Cc3ccccc3)c2C(=O)N2CCN(C(=O)OC(C)(C)C)CC2)CC1
→ i	-0.2%
Cc1ccc([C@H]2C[C@H](n3cc(COC(=O)c4ccccc4)nn3)[C@@H](O)CN2C(=O)c2cccs2)cc1
→ i	-9.0%
COc1cc(/C=C2\SC(=O)N(Cc3ccc(Cl)cc3)C2=O)cc([N+](=O)[O-])c1O
→ -3.0%	2.1%
C=CC1CN2CCC1CC2C(O)c1ccnc2ccccc12 (stereo unspecified)
→ -4.6%&-11.9%	1.6%&-10.2%&-11.0%
Cc1c(O)ccc(NC(=O)/C=C/c2ccccc2)c1C
→ -16.4%	-12.1%
CCOc1cc(C2NC(=O)NC(C)=C2C(C)=O)cc(Cl)c1OCC(=O)O (stereo unspecified)
→ -7.8%	0.6%
Cc1cc(=O)n2nc(N3CCCC(C(=O)NCCCN4CC(C)CC(C)C4)C3)sc2n1 (stereo unspecified)
→ i[7.34 µM]	-0.3%[7.34 µM]
COc1cccc(CCNc2ccc(N3C(=O)CC(C)C3=O)cc2[N+](=O)[O-])c1 (stereo unspecified)
→ -6.4%	-9.4%
CN(C(=O)COC(=O)Cc1ccc(Br)cc1)c1c(N)n(Cc2ccccc2)c(=O)[nH]c1=O
→ i	-15.9%
CC(/C=C/c1ccccc1)=N\NC(=O)c1ccc(Br)cc1
→ -14.9%	-6.9%

Additional entries.
Values run as follows: Vaccinia mCherry	Vaccinia Venus
Cc1cccc(N2CCN(S(=O)(=O)c3cc(Cl)ccc3Cl)CC2)c1C
→ -6.4%	7.6%
Cc1sc2nc(CSC(C)C(=O)Nc3ccc(C#N)cc3)[nH]c(=O)c2c1C (stereo unspecified)
→ -11.6%	-5.6%
COc1ccc(N2CCN(C3CCCN(Cc4ccc(F)cc4)C3)CC2)cc1 (stereo unspecified)
→ ?	-14.0%
CC1CCCCN1S(=O)(=O)c1ccc(S(=O)(=O)N2CCN(C)CC2)cc1 (stereo unspecified)
→ 6.0%	-1.0%
CCCCOC(=O)Nc1ccc(S(=O)(=O)Nc2cc(C)nc(C)n2)cc1
→ -12.9%	-0.4%
CNC(=S)N1N=C(c2ccc(OC)cc2)CC1c1ccccc1Cl (stereo unspecified)
→ -13.3%	-7.8%
CCOC(=O)Cn1c(=O)n(CC2CCCO2)c2nc(-c3ccccc3F)nc(C(N)=O)c21 (stereo unspecified)
→ -1.0%	5.5%
CCOc1ccc(CNC(=O)c2ccccc2NC(=O)c2nsc3ccccc23)cc1
→ -20.6%	?
CC12CCC(C(=O)Nc3cccc(Cl)c3)(C(Br)C1=O)C2(C)C (stereo unspecified)
→ ?	-20.9%
CC(C)(C)[C@@H]1C=C(C(=O)O)O[C@H](OCCCCO)C1
→ -6.9%	-7.9%
CC1CC(C)CN(C(=O)COC(=O)CN2C(=O)c3ccccc3C2=O)C1 (stereo unspecified)
→ -14.6%	8.8%
CCN(CC)CCN(C(=O)c1cc2ccccc2cc1OC)c1nc2ccc(F)cc2s1
→ -5.3%	-26.4%
COCCNC(=O)C(=O)NCC1OCCN1S(=O)(=O)c1ccc2c(c1)OCCO2 (stereo unspecified)
→ i	-10.1%
CC(=O)NC(CCS(C)(=O)=O)C(=O)Nc1cc(Cl)ccc1Cl (stereo unspecified)
→ i	-4.1%
CCOc1ccccc1/C=N/NC(=O)c1cccc(Cl)c1
→ -2.4%	-13.1%
COCCn1c(-c2ccc3ccccc3c2)nc2c1c(=O)[nH]c(=O)n2CC(C)C
→ -11.7%	-7.1%
